# TRPV1 potentiator: human TRPV1 potentiation; Q8NER1; TRPV1-expressing cells, Fluo-8 calcium influx, capsaicin EC20 potentiation; host cell line not named in the record; control for the full effect not named in the record; potentiation, % at 8.33 µM; hit rate 0.02% among 320,000; active means potentiation above 80%; inconclusive means 30% to 80%; inactive means below 30%; also: 0% is about no effect
#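 Cells expressing TRPV1 were dye-loaded with Fluo-8 and read kinetically: 10 s baseline, 3 min after compound (agonist portion), then 2 min after EC20 capsaicin (allosteric enhancer portion). Calcium-bound dye fluorescence at 480/520 nm.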
# Sfp inh: blocks B. subtilis Sfp PPTase activity; Biochemical Sfp PPTase activity, qHTS; AID 1490; Potency, µM, without a hit: max response, negative = inhibition, most hits filed as inhibitors; hit rate 3.5% among 310,000; Q9F4F7; active = well fitted inhibition curve with a large enough effect; inconclusive = small, poorly fitted or top-dose-only effect, or another doubt; inactive = no such curve, though single readings can be large or run the other way;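 also: the enzyme is Sfp with the accession as filed and its product quenches rhodamine fluorescence; potency is read from the fitted curve at half-maximal effect; 0% = enzyme reaction without inhibitor and -100% = no enzyme wells; top concentration of the series not given in the record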
#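 Fluorescence-quenching assay with 15 nM Sfp, 5 uM rhodamine-CoA and 12.5 uM BHQ-2-labelled ybbR peptide in pH 7.6 Hepes/MgCl2 buffer. Enzyme was pre-incubated with compound for 15 min at room temperature. Rate was taken from the 30-min fluorescence change (525/598 nm).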
# D2 agonist: human D2 receptor agonism in beta-arrestin assay; hit rate 0.084% among 360,000; activation, % (concentration not given with the values); DiscoveRx PathHunter D2 beta-arrestin, luminescence, 90 min; 100% = 57 uM dopamine signal; in the data active = activation above about 40%; inconclusive = about 15% to 40%; inactive = below about 15%; also: compound concentration not given in the record; the text of the record calls up to 30% inactive
# Target sequence (P14416 whole entry, looked up): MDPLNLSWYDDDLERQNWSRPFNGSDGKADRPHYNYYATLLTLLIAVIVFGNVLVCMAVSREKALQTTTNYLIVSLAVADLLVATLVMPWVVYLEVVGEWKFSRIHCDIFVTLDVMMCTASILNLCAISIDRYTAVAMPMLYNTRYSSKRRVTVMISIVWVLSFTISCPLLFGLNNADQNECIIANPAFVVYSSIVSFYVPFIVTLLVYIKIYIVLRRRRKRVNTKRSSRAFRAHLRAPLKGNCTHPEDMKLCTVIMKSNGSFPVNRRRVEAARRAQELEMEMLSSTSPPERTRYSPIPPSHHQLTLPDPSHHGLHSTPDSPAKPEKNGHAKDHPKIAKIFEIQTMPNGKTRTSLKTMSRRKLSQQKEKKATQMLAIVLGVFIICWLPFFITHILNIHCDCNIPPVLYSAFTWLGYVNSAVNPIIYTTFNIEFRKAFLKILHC
#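 DiscoveRx PathHunter D2 beta-arrestin cells (2,100/well) attached overnight, then compound-stimulated 90 min at 37 C in HBSS/10 mM HEPES/0.1% Tween-20 buffer; beta-galactosidase complementation read by luminescence after 1 h at ambient temperature. Dopamine 57 uM final (EC100) as control.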
# D2 PAM: positive allosteric modulators of human D2 dopamine receptor; DiscoveRx D2 beta-arrestin cells, luminescence, 90 min; 100% = 57 uM dopamine signal; hit rate 0.23% among 360,000; AID 624464; potentiation, % (test concentration not listed); active = potentiation of 50% or more; inconclusive = 30% to 50%; inactive = 30% or less;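 also: compound concentration not given in the record; tested on top of an EC20 dose of dopamine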
#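 PathHunter beta-arrestin assay in DiscoveRx D2 cells. Compounds were added with an EC20 of dopamine (50 nM final) for 90 min at 37 deg C. Luminescence was read 1 h after detection reagent, with 57 uM dopamine as the EC100 control.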
# Six1-Eya2 blk: inhibitors of human Six1/Eya2 interaction | Q15475+O00167 | AlphaScreen GST-Six1/His-Eya2 binding, biochemical; active compounds read low; control for the full effect not named in the record | activity change, % (test concentration not listed) | hit rate 0.56% among 360,000 | AID 651725; in the data active = activity change below about -65%; inconclusive = about -30% to -65%; inactive = above about -30%; also: % is scaled to controls: 0 for no effect and ±100 for the full control effect
#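 Compounds are tested against tagged Six1 and Eya2 proteins bridged by glutathione donor and nickel acceptor beads; after a one-hour incubation at 37 °C without light, AlphaScreen emission is recorded.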
# PINK1 modulator: changes PINK1 expression; Potency, µM (titrated, usually from 76.6 µM), inactives show top-dose activation (PINK1 increase), hits mostly activators; PINK1 immunofluorescence, high-content cytometry, 24 h; AID 624263; hit rate 0.2% among 410,000; active = well fitted activation curve with a large enough effect; inconclusive = small, poorly fitted or top-dose-only effect; inactive = flat fitted curve, though single readings scatter; cell line not stated here;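 also: potency is read from the fitted curve at half-maximal effect; % of control where 0% means no effect; nearly all actives have a fitted effect of over 65% in size; a mitochondrial uncoupler was the plate control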
#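 Stable cell line, 250 cells/well, 12 h attachment; compounds pinned at 5 concentrations, 24 h; CCCP control. Fixed with nuclear dye, primary antibodies 12 h at 10 degrees C, secondary plus cell stain; laser-scanning cytometer read.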
# CtBP-E1A inh: CtBP/E1A binding inhibition | hit rate 0.49% among 340,000 | AlphaScreen GST-E1A/His-CtBP binding, 1536-well; active compounds read low; control for the full effect not named in the record | activity change, % (no concentration beside the values); in the data active means activity change below about -65%; inconclusive means about -30% to -65%; inactive means above about -30%; also: % is scaled to controls: 0 for no effect and ±100 for the full control effect
#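 Steps: dispense buffer (Tris pH 8.0, NaCl 300 mM, TCEP 1 mM, BSA, Tween 20); add 5X protein mix (GST-E1A, His-CtBP, 125 nM each); pin 23 nL compound; 2 h at 37 °C, dark; add 5X beads (50 ug/mL); 1 h; read.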
# Active calls of the source: *; ? = inconclusive; / = no result given; & = joins results of further samples; [ ] = another dose, or the depositor's remark.
smiles,TRPV1 potentiator,Sfp inh,D2 agonist,D2 PAM,Six1-Eya2 blk,PINK1 modulator,CtBP-E1A inh
COc1ccc(Cl)cc1NC(=O)CCS(=O)(=O)c1cc2c(cc1C)NC(=O)CO2,-3,16%,3.0,0,3,-1.2%,-6
CC(C)(C)c1ccc(C(=O)N2CCN(c3ncccn3)CC2)cc1,-20,15%,-2.5,-2,2,1.5%,14
COc1cc(/C=C/C(=O)OCC(=O)Nc2ccc3c(c2)OCCO3)ccc1O,-31,6%,-6.3,-10,3,7.8%,-16
CN(C)CCNC(=O)c1ccccc1-c1ccccc1,-10,8%,-0.5,-7,7,3.4%,9
OC1(c2ccc(Br)cc2)CCNCC1,14,7%,-2.4,-20,-8,7.8%[38.3 µM],-9
Cc1ccnc(NC(=O)CCC(=O)N(CC(=O)NC(C)(C)C)Cc2ccc3c(c2)OCO3)c1,14,14%,-5.6,-5,5,1.4%,7
CC1Cc2nc(SCC(=O)Nc3nccs3)n(C)c(=O)c2S1 (stereo not given),1,50µM*,2.7,1,-1,0.0%,9
O=C(NC1CC1)c1cc2cc(Br)ccc2s1,-4,11%,-0.8,-8,5,-0.7%,0
O=C(c1cccc(Cl)c1)N1CCN(Cc2ccc3c(c2)OCO3)CC1,-20,16%,-2.1,-22,-4,0.1%,-2
CC(C)(C)C(=O)Nc1ccc(S(=O)(=O)Nc2nccs2)cc1,4,1%,-4.3,-12,3,0.9%,3
COc1ccc(N2CCN(C(=O)CN(c3ccc(OC)cc3)S(=O)(=O)c3ccccc3)CC2)cc1,6,7%,-5.7,-8,?,1.9%,-27
Cc1cccc(/N=C/c2c(O)cc(C)oc2=O)n1,1,-14%,-2.7,3,-3,0.2%,-1
COc1ccc(S(=O)(=O)N2CCCCC2)cc1NC(=O)CSc1nnc(C2CC2)n1C,-1,/,-2.1,-1,0,0.8%,3
CCCNC(=O)C1CCC(CNS(=O)(=O)c2ccc3c(c2)N(C(C)=O)CCO3)CC1 (stereo not given),-5,14%,-3.1,-13,1,1.3%,4
CC(=O)NS(=O)(=O)c1ccc(NC(=O)c2oc3c(Cl)cccc3c2C)cc1,1,18%,2.0,3,-9,5.5%,0
CCC(=O)NNC(=S)NC(=O)c1ccc(C)cc1,6,56µM*,-1.6,12,1,-1.3%,-24
CC1Sc2ccc(C(=O)Nc3ccc(S(=O)(=O)N(C)C)cc3)cc2NC1=O (stereo not given),-5,/,2.0,-5,-5,2.0%,5
C/C(=N\Nc1ccc(S(=O)(=O)N2CCOCC2)cc1[N+](=O)[O-])C(C)C,-11,19%,2.0,-4,?,1.3%,-4
Cc1ccc(NC(=O)CCc2ccc(S(=O)(=O)N3CCOCC3)cc2)c(C)c1,22,7%,-3.9,-14,-1,-2.0%,6
COC(=O)c1ccc(C(=S)N2CCOCC2)cc1,13,22µM*,0.8,15,1,-1.4%,-4

# The final two compounds of the section before come first, to join the parts:
smiles,TRPV1 potentiator,Sfp inh,D2 agonist,D2 PAM,Six1-Eya2 blk,PINK1 modulator,CtBP-E1A inh
Cc1ccc(NC(=O)CCc2ccc(S(=O)(=O)N3CCOCC3)cc2)c(C)c1,22,7%,-3.9,-14,-1,-2.0%,6
COC(=O)c1ccc(C(=S)N2CCOCC2)cc1,13,22µM*,0.8,15,1,-1.4%,-4
Nc1nc(COC(=O)CCC(=O)c2ccccc2)nc(Nc2ccccc2)n1,6,/,-2.9,-1,-6,0.8%,1
O=C1CCCCC(=O)[C@H](O)C[C@H](c2ccccc2)O1,/,/,/,/,0,0.5%,3
CCOC(=O)C1(C)CCCN(C(=O)c2ccccc2F)C1 (stereo not given),/,/,-6.4,-12,-5,2.1%,-2
CN(N=O)c1ccc(C=C2C=Cc3ccccc32)cc1,/,/,-3.0,7,-23,6.3%,-3
C=CC[C@@H](CC(=O)N[C@@H](CO)Cc1ccccc1)C(=O)N[C@H](COC(=O)[C@@H](CC=C)Cc1ccc(F)cc1)C(C)(C)C,/,/,-3.7,2,11,23%,-7
COc1ccccc1CNC(=O)c1nn(-c2ccc(C)cc2)c(=O)c2c1c1ccccc1n2C,4,?,-0.8,9,3,1.4%&2.8%,-6
Cc1cc(Oc2ccc3ccccc3c2)nc(SCC(=O)c2ccccc2)n1,-1,-22%,0.4,-6,5,-0.6%,26
COc1ccc(OCc2cc(C(=O)NCC3CCOCC3)no2)c(Cl)c1,-1,4%,-0.9,-2,-2,-0.1%,-3
COc1ccccc1N1CCN(C(=O)CSc2nc(N)cc(=O)[nH]2)CC1,5,-7%,-4.3,-19,-2,?,-2
CCOC(=O)[C@H]1[C@H]2COc3ccc(Cl)cc3[C@@H]2N2C(=O)c3cc(F)ccc3NC(=O)[C@@]12C,-7,/,0.2,-31,6,1.0%,-1
O=C(O)Cn1c(=O)c2c3c(sc2n(Cc2ccccc2F)c1=O)CCCC3,?,3%,-3.3,-3,2,1.3%,2
O=C(c1ccccc1F)N1CCN(C2CCC(c3ccccc3)CC2)CC1 (stereo not given),3,-22%,-0.8,-15,-16,0.2%,-1
O=C(NCc1ccco1)c1ccc(Cl)c(S(=O)(=O)N2CCCC2)c1,-6,/,2.3,-1,-4,0.0%,0
O=c1oc(CCCO)cc2ccc(C#CC3(O)CCCCC3)cc12,-22,/,1.2,-6,12,2.7%,/
COc1cccc(C(=O)Nc2nnc(-c3cccs3)s2)c1,8,-15%,-1.1,6,-3,0.6%,-1
CCC(=O)c1ccc(OCC(O)CN2CCN(c3cccc(C(F)(F)F)c3)CC2)cc1 (stereo not given),12,-1%,?,-3,1,18%,-12
CCC(NC(=O)NCCCn1ccnc1)(C(F)(F)F)C(F)(F)F,18,-8%,-0.2,-10,4,-1.5%,3
CCC1=C2CC[C@H]3C(=O)N(c4ccccc4)C(=O)[C@H]3[C@H]2[C@@]2(C)C(=NCC(=O)OC)OC(=O)N2C1=O,12,44%&10%[activator],-3.6,-6,1,0.4%,-8
CNc1c(N=Cc2cccnc2)c(=O)n(C)c(=O)n1C,-3,1%,0.7,-12,6,4.9%,-10
CCc1ccc(NC(=O)C(C)OC(=O)CN2C(=O)NC3(CCCC3)C2=O)cc1 (stereo not given),-18,/,-3.7,0,3,0.6%,/

# Shown as a hit in Sfp inh (from the list above):
SMILES	Sfp inh	D2 agonist	D2 PAM	Six1-Eya2 blk	PINK1 modulator	CtBP-E1A inh
CC1Cc2nc(SCC(=O)Nc3nccs3)n(C)c(=O)c2S1 (stereo not given)	50µM*	2.7	1	-1	0.0%	9
CCC(=O)NNC(=S)NC(=O)c1ccc(C)cc1	56µM*	-1.6	12	1	-1.3%	-24
COC(=O)c1ccc(C(=S)N2CCOCC2)cc1	22µM*	0.8	15	1	-1.4%	-4

# (next part)
smiles,TRPV1 potentiator,Sfp inh,D2 agonist,D2 PAM,Six1-Eya2 blk,PINK1 modulator,CtBP-E1A inh
Nc1c(C(=O)NC2CC2)sc2nc3c(c(-c4ccco4)c12)CC/C3=C/c1ccco1,6,5µM*,-3.0,-12,?,3.7%,-23
CC(NC(=S)N1CCOCC1)c1ccccc1 (stereo not given),-15,10%,-1.7,2,2,-0.4%,1
CC(NC(=O)c1cc2ccccc2oc1=O)c1ccccc1 (stereo not given),-33,2%,-0.7,-5,-1,0.1%,-9
CCOc1c2ccc(C(=O)NCc3ccc(OC(F)(F)F)cc3)cc2nn1CC,6,7%,-0.5,-6,1,0.0%,/
CC1=C(C(=O)N2CCCCCC2)CC(CC(=O)NCCCCc2ccccc2)C(=O)N1Cc1ccccc1 (stereo not given),/,/,-4.8,2,0,-0.9%,1
CC(C)(C)c1cc(C(F)(F)F)c(C#N)c(=O)[nH]1,5,15%,-2.4,26,-1,-0.5%,-2
CCn1cc(S(=O)(=O)N2CCN(Cc3cccc(Cl)c3)CC2)cn1,-2,-3%,-2.1,-11,10,0.6%,-8
COc1ccc(CNC(=O)N2CCN(c3ccc(F)cc3)CC2)cc1Cl,-2,11%,-3.8,-11,-7,1.4%,-12
O=C(Nc1cc(S(=O)(=O)Nc2ccccc2F)ccc1Cl)c1ccc(F)cc1F,/,/,0.1,-5,2,6.7%,3
CCc1ccc(NC(=O)CSc2nc3ccsc3c(=O)n2CCCCCC(=O)O)cc1,-23,16%,-9.7,-5,-11,0.1%,-1
COc1ccc(C(=O)N/N=C(\C)CC(=O)Nc2ccc3ccccc3c2)c(OC)c1,5,7%,-5.4,-10,-10,-0.4%,5
CC(=O)N1CCCc2ccc(NS(=O)(=O)c3ccc(C)c(C)c3)cc21,25,7%,11,-6,2,0.1%&2.7%,-2
COc1cc(CNCCN(C)C)ccc1OCc1c(F)cccc1Cl,5,6%,1.1,-3,-4,0.2%,-1
O=S(=O)(c1ccc(F)c(Cl)c1)N1CCN(C/C=C/c2ccccc2)CC1,-17,/,0.4,-5,-8,3.2%,-7
Cc1cnc2c(c1)C(=O)c1ccccc1-2,-11,6%,-1.7,-3,-8,10%,/
COc1cc(C(=O)Nc2nccs2)cc(OC)c1OC,?,1%,1.4,-16,?,-0.4%,?
CCC(=O)N1CCCC(C)(C(=O)Nc2nccc3ccccc23)C1 (stereo not given),/,/,-1.8,-6,11,2.4%,-14
Cn1cc(S(=O)(=O)N2CCOCC2)cc1C(=O)NCc1ccccc1Cl,2,14%,-4.8,-2,-6,0.2%,1
CCOP(=O)(OCC)C(C)(C)NC(=O)Nc1ccc(Cl)c(Cl)c1,-3,15%,-4.9,-6,5,0.4%,-3
Nn1cnnc1N/N=C/c1ccccc1C(F)(F)F,11,?,?,-11,1,0.6%,/
Cc1ccccc1Cn1cc(/C=N/n2cnnc2)c2ccccc21,-1,-3%,-0.3,20,-1,-3.1%,-2
C=CCNC(=O)NC(=O)COC(=O)/C(C#N)=C/c1ccc(OC)cc1,5,7%,0.9,-3,5,0.0%,8

# Copied from the list.
# For Six1-Eya2 blk, CC(C)(C)c1cc(C(F)(F)F)c(C#N)c(=O)[nH]1 has the entry -1
# For CtBP-E1A inh, O=C(Nc1cc(S(=O)(=O)Nc2ccccc2F)ccc1Cl)c1ccc(F)cc1F has the entry 3
